High-throughput results from PubChem.
RecA intein inh: blocks M. tuberculosis RecA intein splicing. P9WHJ3. cell-free RecA intein splicing, fluorescence. inhibition, %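 (about 9 µM by stock and volumes)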. hit rate 0.75% among 290,000. AID 2221; in the data active means inhibition above about 30%; inconclusive means no clear call, values can overlap the other calls;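 further: 0% = vehicle wells and 100% = reference inhibitor control wells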
Target sequence (P9WHJ3 whole entry, looked up): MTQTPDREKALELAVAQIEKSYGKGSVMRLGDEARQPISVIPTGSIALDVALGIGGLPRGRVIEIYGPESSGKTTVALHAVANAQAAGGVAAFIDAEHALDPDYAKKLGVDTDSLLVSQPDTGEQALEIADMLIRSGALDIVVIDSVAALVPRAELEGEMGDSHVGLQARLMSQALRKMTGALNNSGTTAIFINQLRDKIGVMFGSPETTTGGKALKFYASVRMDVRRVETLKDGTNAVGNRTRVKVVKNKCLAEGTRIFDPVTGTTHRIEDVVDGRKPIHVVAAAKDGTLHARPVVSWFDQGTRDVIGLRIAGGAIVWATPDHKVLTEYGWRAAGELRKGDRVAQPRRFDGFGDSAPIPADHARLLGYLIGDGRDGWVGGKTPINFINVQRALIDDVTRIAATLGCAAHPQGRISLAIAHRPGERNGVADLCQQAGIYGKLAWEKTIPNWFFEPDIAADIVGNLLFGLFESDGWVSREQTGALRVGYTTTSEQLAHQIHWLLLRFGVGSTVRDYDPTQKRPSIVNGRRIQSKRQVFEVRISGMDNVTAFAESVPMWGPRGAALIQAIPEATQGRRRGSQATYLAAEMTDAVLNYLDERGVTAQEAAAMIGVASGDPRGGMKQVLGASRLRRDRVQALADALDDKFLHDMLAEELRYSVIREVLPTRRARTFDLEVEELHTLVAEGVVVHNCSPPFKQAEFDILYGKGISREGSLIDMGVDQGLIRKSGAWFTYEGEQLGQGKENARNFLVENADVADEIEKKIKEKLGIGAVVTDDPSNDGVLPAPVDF
YopH inh: blocks Yersinia enterocolitica YopH tyrosine phosphatase; fluorescence Ex485/Em525; inhibition, %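 (about 10 µM by stock and volumes)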; hit rate 0.16% among 140,000;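 active means inhibition of 50% or more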;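 further: controls were vehicle for no effect and minimum signal wells for full effect; inactives centre near -20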
Mtb betalactam: beta-lactam sensitization of Mtb H37Rv | hit rate 0.27% among 330,000 | inhibition, % at 25 µM | M. tuberculosis H37Rv growth with meropenem, percent inhibition; hits of this screen are not shown here | AID 434955;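 active means about 74% or more and at least 40 points above the plate without the antibiotic, then above 30% in a dose series; inconclusive means first-round hits that could not be retested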;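 further: growth measured after seven days incubation then overnight dye step; 0% = bacteria only wells and 100% = bacteria with antibiotic; twin plates without the antibiotic show which effects depend on it; some results filed as inactive read as strong as hits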
Arbovirus anti: arbovirus infection inhibition. inhibition, % at 10 µM. arbovirus infection cell-based antiviral screen. hit rate 0.37% among 200,000. AID 1251;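 active means inhibition from about 30%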;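 further: bluetongue infection of BSR cells; cell survival read as ATP light after 72 h; 0% = infected wells without compound and 100% = uninfected wells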
Mtb growth: M. tuberculosis H37Rv growth inhibitors, H37Rv strain (AID 1626) | M. tuberculosis H37Rv growth inhibition; higher % means a stronger effect | inhibition, % at 10 µM; hits with a dose series show IC50 in µM | hit rate 0.95% among 220,000;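 active means confirmed in a dose series; inconclusive means inhibition above 80% but not taken into the dose series; inactive means below 80% or under 30% at every dose of the series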;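 further: bacteria incubated seven days before Alamar blue readout; 0% = bacteria only wells and 100% = bacteria with antibiotic wells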
Arbovirus anti repeat: further read-out of Arbovirus anti, marked with its call; inhibition, %; measured here: 10K subset replicate screen; many hits read low in the repeat;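 first of two repeat runs on a subset; 0% = infected and 100% = uninfected wells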
Active calls of the source: *; ? = inconclusive; · = no result given. The list is partial; rates above refer to the full screens.

SMILES	RecA intein inh	YopH inh	Mtb betalactam	Arbovirus anti	Mtb growth	others
CCN(CC)Cc1c[nH]c2ccccc12	4.4	-39	-1	8	4%
CNC(=S)N(Cc1ccc(OC)cc1)C1CC(=O)N(c2ccc(OC)cc2)C1=O (centres undefined)	0.1	-26	7	-9	-2%
Cc1[nH]c2c(C)cccc2c1CCNC(=O)c1ccc2c(c1[N+](=O)[O-])C(=O)c1ccccc1C2=O	8.5	-32	84	-12	-3%
COC(=O)c1cc(C(=O)OC)cc(N2C(=O)CC(NNC(=O)c3ccc(C)cc3)C2=O)c1 (centres undefined)	2.1	8	-4	1	-8%
Cc1ccccc1NC(=O)Cc1nc(COC(=O)CNS(=O)(=O)c2cccc(Br)c2)cs1	0.4	·	-9	·	·
CCOC(=O)CNC(=O)CSc1nc2cccnc2n1CC	0.1	-12	-5	-8	2%
Fc1cccc(NC(=S)NCCN2CCOCC2)c1	0.1	-11	-7	9	-6%
O=C(CC1NCCNC1=O)OCc1ccccc1 (centres undefined)	2.7	-30	-5	-6	-2%
O=C(CSC1=Nc2ccccc2C2=NC(c3ccccc3)C(=O)N12)NCC1CCCO1 (centres undefined)	-22	1	-6	3	-6%
C=CCN1C=C2C(=O)C(C)(OC(=O)c3cnc4ccccc4n3)C(=O)C=C2C=C1/C=C/COC (centres undefined)	2.0	·	7	·	6%
COc1ccc(NC(=O)CN2CCC(n3c(C)nc4cc(F)ccc43)CC2)c(OC)c1	-1.2	-32	10	7	·
COC(=O)CCC(=O)OC1(C)C(=O)C2=CN(CCc3ccccn3)C(c3ccc(OC)cc3)=CC2=C(Br)C1=O (centres undefined)	-4.4	·	8	·	-4%
O=C(CNC(=O)c1ccco1)OCC(=O)c1ccc(Br)cc1	-3.9	·	2	·	·
Cn1ncc([N+](=O)[O-])c1C(=O)Nc1ccn(Cc2ccccc2F)n1	2.9	-28	-11	-32	6%
CCn1c(SCC(=O)c2ccc(Cl)cc2)nnc1-c1ccoc1C	6.2	-46	8	0	-12%
Cc1[nH]c(C)c(S(=O)(=O)N2c3ccccc3CC2C)c1C(=O)N1CCCCC1 (centres undefined)	0.8	·	-5	·	·
CNC(=S)NNC(=O)Cc1ccc(OC)cc1	-3.0	·	-11	·	-1%
CC(=O)NC1C(=O)N=C(SCC(=O)Nc2c(C)cccc2C)NC1=O (centres undefined)	0.7	·	2	7	-3%
CC(=O)c1ccc(S(=O)(=O)NCc2ccc(C(=O)N(C)CC(=O)Nc3cccc(F)c3)cc2)cc1	-0.5	·	-3	·	·
C=CCOC(=O)C1=C(C)OC(N)=C(C#N)C12C(=O)N(CN1CCOCC1)c1ccccc12 (centres undefined)	6.1	-47	-9	4	-8%
COc1cc(C(=O)NCCc2cn3ccccc3n2)cc(OC)c1OC	4.0	11	3	-1	6%	Arbovirus anti repeat=-2
CCn1c(=O)c(=O)[nH]c2cc(C(=O)NC3CC3)ccc21	2.5	-10	8	-5	-5%
CCCCNC(=O)NCC(=O)Nc1ccc(F)c(F)c1	-4.7	-54	-5	3	3%
Cc1cc(C)c2c(=O)[nH]c(SCC(=O)N(C)C)nc2n1	2.7	-28	6	5	-24%
Oc1cc2c(cc1C(c1ccc(Cl)c(Cl)c1)N1CCCC1)OCO2 (centres undefined)	12	·	·	-19	1%

Remaining list, next part.
SMILES	RecA intein inh	YopH inh	Mtb betalactam	Arbovirus anti	Mtb growth	others
CC(/C=C/c1ccccc1)=N\Nc1nc2c(c(=O)[nH]c(=O)n2C)n1CCO	-1.8	·	1	·	3%
Cc1ccc2c(c1)N(CC(=O)O)C(=O)CO2	3.9	-27	7	-3	-14%
O=c1c2ccccc2n2c(-c3cccc(Cl)c3)nnc2n1Cc1ccccc1	0.5	-19	7	-11	-2%
COc1cc(NC(=O)CSc2nnnn2-c2ccccc2)cc(OC)c1OC	-0.9	4	3	-14	-4%
COc1cc(/C(C)=N/NC(=O)c2ccc(CSc3nncn3C)cc2)cc(OC)c1OC	-1.3	·	0	0	-6%
O=C(O)c1ccc(OC2CSC2)cc1	-2.3	-56	-10	-1	-7%
O=C(NCC1CCCO1)c1cc2ccccc2cc1O (centres undefined)	-36	·	6	·	·
COc1c(S(=O)(=O)N2CCN(C(=O)c3ccco3)CC2)ccc(Cl)c1Cl	-1.3	·	-8	·	·
Oc1cccc(C2c3[nH]c4ccccc4c3CCN2Cc2ccc3c(c2)CCO3)c1 (centres undefined)	3.4	·	67	-12	-1%
Cc1ccc(/C(O)=C2\C(=O)C(=O)N(c3cc(C)on3)C2c2cccc(Cl)c2)cc1 (centres undefined)	2.7	-32	8	18	-10%
COc1ccc(Cl)cc1NC(=S)NCCc1ccc(S(N)(=O)=O)cc1	0.9	·	-2	10	-5%
N#CC1=C2SCN(Cc3ccco3)CN2C(=O)CC1c1cccc2ccccc12 (centres undefined)	6.7	-24	4	3	-5%
CCOC(=O)COc1c(Br)cc(/C=C2\SC(=O)N(CC(=O)N3CCCC3)C2=O)cc1OC	1.9	3	76	3	·
Cc1ccccc1-n1c(SCc2c(C)noc2C)nnc1-c1cccnc1	-2.9	-10	-3	3	3%
Cc1c(C(=O)OCC(=O)NCC2CCCO2)cccc1[N+](=O)[O-] (centres undefined)	2.7	·	-2	6	6%
Cc1nn(C(=O)CCC(=O)NCCc2ccccc2)c2ccccc12	2.6	·	2	·	·
CC(Nc1cc(C)cc(C)c1)=[N+](C)CCNS(=O)(=O)c1ccc(Cl)cc1	-1.0	·	1	·	·
O=C(Nc1nc(-c2ccccc2)cs1)C1CCCCN1S(=O)(=O)c1ccccc1 (centres undefined)	7.8	20	-1	3	15%
O=C(CCCC(=O)NC1CCCCC1)Nc1ccc([N+](=O)[O-])cc1	-0.4	·	-6	·	·
CC(=O)C1C(c2ccc(Cl)cc2)c2c(n[nH]c2C)CC1(C)O (centres undefined)	12	·	-4	2	4%
Nc1ncnc2c1ncn2[C@@H]1O[C@H](CO)[C@@H](O)[C@H]1O	16	-30	2	-5	-3%
O=C(Nc1nnc(-c2cccs2)o1)c1ccc(S(=O)(=O)N2CCOCC2)cc1	·	·	61	10	?
Cc1ccc(-n2[nH]c(C)c(/C=N/c3cccc(C)n3)c2=O)cc1	3.3	·	-2	·	-4%
COc1ccccc1NC(=O)CCc1nnc2ccc(N3CCCCC3)nn12	-2.6	·	3	·	·
CCN(CC)CCCn1c2c(c(SCC(=O)Nc3cccc(C)c3C)nc1=O)CCC2	0.6	·	-5	·	·

Not a retest: 5 of the compounds above.
SMILES	RecA intein inh	YopH inh	Mtb betalactam	Arbovirus anti	Mtb growth	others
O=C(O)c1ccc(OC2CSC2)cc1	-2.3	-56	-10	-1	-7%
O=C(NCC1CCCO1)c1cc2ccccc2cc1O (centres undefined)	-36	·	6	·	·
COc1c(S(=O)(=O)N2CCN(C(=O)c3ccco3)CC2)ccc(Cl)c1Cl	-1.3	·	-8	·	·
Oc1cccc(C2c3[nH]c4ccccc4c3CCN2Cc2ccc3c(c2)CCO3)c1 (centres undefined)	3.4	·	67	-12	-1%
Cc1ccc(/C(O)=C2\C(=O)C(=O)N(c3cc(C)on3)C2c2cccc(Cl)c2)cc1 (centres undefined)	2.7	-32	8	18	-10%

Next section
SMILES	RecA intein inh	YopH inh	Mtb betalactam	Arbovirus anti	Mtb growth	others
COCCNC(=O)Cn1cnc2c(cnn2-c2ccc(OC)cc2)c1=O	-0.2	·	0	·	·
Cc1cccc(C(C)C)c1-n1nnnc1-c1ccccc1	10	-35	9	0	-3%
Cc1csc(NC(=O)c2oc3ccccc3c2C)n1	-5.2	·	0	·	·
Cc1ccc(NC(=O)CCc2nnc3ccc(N4CCC5(CC4)OCCO5)nn23)nc1	-1.5	·	3	·	·
Cn1c(=O)c2c(ncn2CC(=O)OCC(=O)Nc2ccc(Cl)cc2Cl)n(C)c1=O	3.3	-33	-2	-1	-6%
Cc1ccc(NNC(=O)C(O)(c2cccc(C(F)(F)F)c2)c2cccc(C(F)(F)F)c2)cc1	-1.3	-31	98	-26	?
N#CCCN1CCN(S(=O)(=O)c2ccc(S(=O)(=O)NC3CCCCC3)cc2)CC1	0.2	-12	-2	-4	1%	Arbovirus anti repeat=12
O=C(CCSCc1ccccc1)Nc1ccc2c(c1)OCCO2	2.9	·	12	-4	·
C=CCn1c(-c2cc(OC)c(OC)c(OC)c2)n[nH]c1=S	0.3	2	5	0	-4%
CCCN(CCC)C(=O)C1CCN(c2ccc(S(=O)(=O)N3CCOCC3)cc2[N+](=O)[O-])CC1	0.3	·	1	·	·
Cc1noc2ncnc(Oc3ccccc3)c12	-1.4	-9	-10	3	4%
COc1ccc(Cl)cc1NC(=O)C(C)N1CCN(C/C=C/c2ccccc2)CC1 (centres undefined)	22	-9	99	-4	12µM*
Cn1nc(C(=O)NCc2ccccc2)cc1C(=O)NCc1ccccc1	-0.9	·	0	·	·
COc1ccc(N2C(=O)CC(Nc3cccc(C(C)=O)c3)C2=O)cc1OC (centres undefined)	3.0	-13	0	7	2%
CC(=O)c1c(N2CCN(c3cccc(Cl)c3)CC2)nc(=S)n(-c2ccccc2)c1C	-1.1	-7	13	-1	1%
Cc1ccc2[nH]c(O)c(N=Nc3ccccc3C)c2c1	-1.5	·	0	·	·
COc1cccc(OCc2cc(C(=O)N3CCC(C(O)C(C)C)CC3)no2)c1 (centres undefined)	1.7	·	3	·	·
Cc1ccc(S(=O)(=O)NCCC(=O)Nc2ccc(Cl)cc2C(=O)c2ccccc2)cc1	0.0	-34	6	1	-1%
O=c1ccc(-c2ccc(S(=O)(=O)NCc3cccc(Br)c3)s2)n[nH]1	1.7	·	-9	·	·
CCOC(=O)c1[nH]c2ccc(Br)cc2c1NC(=O)CNC	0.5	-15	-7	5	-1%
COc1ccc(C(=O)NC2CC(C)(C)Cc3c2cnn3-c2ccccc2C)c(OC)c1OC (centres undefined)	9.4	·	-3	·	·
NC(=O)C1=C[C@@H](C2CCCCC2)C[C@@H](OCCCCO)O1	2.2	·	-1	2	-5%
CN(C)c1oc(-c2ccc(Cl)cc2)nc1S(=O)(=O)c1ccccc1	2.7	-24	0	-8	0%
C=C(C)c1ccc(C(C)(C)NC(=O)N(Cc2ccccc2)Cc2ccco2)cc1	-0.2	-19	-15	-8	7%
CN1C(=O)C(CCC(N)=O)NC1=S (centres undefined)	-1.6	·	1	·	-4%

More compounds follow:
SMILES	RecA intein inh	YopH inh	Mtb betalactam	Arbovirus anti	Mtb growth	others
O=C(NCc1ccncc1)C(=O)NCC(c1ccco1)N1CCN(c2ccccc2)CC1 (centres undefined)	-3.3	·	-1	-2	4%
CC(=O)Nc1ccc(NC(C)=C(C#N)C#N)cc1	2.9	-21	-2	-10	-9%
Nn1cnnc1N/N=C/c1cc([N+](=O)[O-])c(Cl)cc1Cl	-0.5	-26	-6	0	·
COc1ccc(-c2sc(Nc3ccccc3)n[n+]2-c2ccc(F)cc2)c(OC)c1OC	-4.7	·	-6	·	·
Clc1ccc(C2C3=C(Nc4ncnn42)c2ccccc2CC3)cc1 (centres undefined)	6.6	-9	2	-7	6%
COCCn1c(C)cc(C(=O)CSc2nnc(-c3cccnc3)n2-c2ccccc2F)c1C	1.2	-45	10	11	7%
O=C(COC(=O)/C=C/c1ccc(C(F)(F)F)cc1)NCC1CCCO1 (centres undefined)	0.4	·	9	·	·
CNC(=O)CS(=O)(=O)CC(=O)Nc1cc(OCCOC)c(Cl)cc1Cl	·	·	0	-3	3%
CC1CCN(C(=O)CSc2nnc(CNc3ccc(F)cc3)n2Cc2ccco2)CC1	3.7	-23	-7	-4	-9%
Cc1ccccc1CN1CCN(C(=O)c2ccc(F)cc2)CC1	-0.5	·	-5	·	·
CCn1nnc(NC(=O)c2ccccc2Br)n1	1.3	-3	-3	4	-5%
O=C(CCS(=O)(=O)c1cccs1)Nc1ccc(C(=O)NCc2ccc(F)cc2)cc1	-2.1	-1	5	-12	-4%
CC(C)(C)c1ccc(S(=O)(=O)Nc2ccc3c(c2)COC3=O)cc1	0.8	·	-1	12	5%
O=C(Cn1nc(CNc2ccc(Cl)cc2)[n+]2c1CCCCC2)c1ccc(Cl)cc1	3.6	-17	86	4	?
N#CC1(c2ccccc2)CCC(NCCc2ccccc2)CC1 (centres undefined)	-1.8	·	99	·	·
COc1ccc(N2C(=O)NC(=O)C2=O)cc1	-0.6	·	-4	·	·
O=c1c2cccnc2[nH]c(=S)n1CCC1=CCCCC1	-3.7	-42	7	3	-4%
O=C(c1ccc(Cl)c(S(=O)(=O)N2CCCCCC2)c1)N1CCCC1	0.6	·	5	·	-11%

Ordered by molecular weight (lowest first): some entries from above.
SMILES	RecA intein inh	YopH inh	Mtb betalactam	Arbovirus anti	Mtb growth	others
CCn1nnc(NC(=O)c2ccccc2Br)n1	1.3	-3	-3	4	-5%
Cc1ccccc1CN1CCN(C(=O)c2ccc(F)cc2)CC1	-0.5	·	-5	·	·
Clc1ccc(C2C3=C(Nc4ncnn42)c2ccccc2CC3)cc1 (centres undefined)	6.6	-9	2	-7	6%
